NPYLR7 agonist: mosquito NPYLR7 agonism; HEK293T NPYLR7/Galpha15, GCaMP6s calcium fluorescence; activation, % at 10 µM; actives 0.15% (n = 270,000); in the data active = activation above about 40%;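 also: 0% = vehicle and 100% = reference agonist at the receptor; some compounds past the cut are filed as inactive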
NPYLR7 agonist max-min: recorded beside NPYLR7 agonist, whose call it bears; activation, %; measured here: Max-Min RFU normalised activation; some inactives read as strong as hits;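 span of the calcium signal over five minutes; 0% = vehicle and 100% = native peptide agonist; compound fluorescence can raise it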
Active calls of the source: *; & = joins results of further samples. Not all compounds are listed; rates above refer to the full screens.

Start of the data: the first two records, to show the layout:
Values run as follows: NPYLR7 agonist max-min	NPYLR7 agonist
1. COc1ccc(-c2cc3c(=O)n(CC(N)=O)ccn3n2)cc1
    4	6
2. O=C(CCc1ccco1)N1CCN(Cc2cccc(-c3noc(C4CCCC4)n3)c2)CC1
    15	4

The list itself, previewed entries included:
Values run as follows: NPYLR7 agonist max-min	NPYLR7 agonist
1. COc1ccc(-c2cc3c(=O)n(CC(N)=O)ccn3n2)cc1
    4	6
2. O=C(CCc1ccco1)N1CCN(Cc2cccc(-c3noc(C4CCCC4)n3)c2)CC1
    15	4
3. O=C(NC1CC1)C1CCN(C2CCN(c3ncnc4nc[nH]c34)CC2)CC1
    0	3
4. COc1cccc(C(=O)Oc2ccc3c(c2)O/C(=C\c2ccc(C)o2)C3=O)c1
    -9	-6
5. Cn1c(SCC(=O)Nc2nccs2)nc2c([nH]c3ccccc32)c1=O
    10	3
6. Cn1ccc(NC(=O)CCc2nc(-c3cccs3)no2)n1
    -3	-2
7. CSc1nc(C)cc(-n2ccc(=O)[nH]c2=O)n1
    -3	1
8. COc1ccc(Cc2nnc(NC(=O)CSc3nc4ccccc4s3)s2)cc1
    6	2
9. CC(C)CNC(=O)C1(C)CCCCCN1C(=O)c1cccnc1 (stereo not drawn)
    -7	-7
10. O=C(NC1CCN(C2CC2)CC1)c1c(Cl)nc2ccccn12
    -17	-14
11. COc1ccccc1C(=O)OC1=C(C(=O)c2ccccc2)N(CC#N)S(=O)(=O)c2ccccc21
    -4	1
12. CC(=O)N(C)c1ccc(NC(=O)C2C3CC4CC(C3)CC2C4)cc1 (stereo not drawn)
    3	3
13. O=C(Nc1cc(F)cc(C(F)(F)F)c1)N[C@@H](Cc1ccccc1)C(=O)N1CCC(C(=O)N2CCOCC2)CC1
    7	0
14. Cn1ncc(N2CCC(CNc3ncc(F)c(N4CCOCC4)n3)C2)cc1=O (stereo not drawn)
    3&2	5&-1
15. COc1ccc(-n2nc(C)c(-c3ccccc3)c2NC(=O)CN(C(=O)C2CCC2)C(C)C)cc1
    7	2
16. CCC(C)NS(=O)(=O)c1ccc(C(=O)N(CC)CC(C)C#N)cc1 (stereo not drawn)
    -7	-5
17. CN(C)CCNC(CC(=O)Nc1ccc(Cl)cc1)C(=O)O (stereo not drawn)
    -2	2
18. Cc1cccn2c(NCc3ccccc3)c(-c3ccccc3OC(=O)Cc3ccccc3)nc12
    12	19
19. CC(C)C(C)/C=C/C(C)[C@H]1CCC2C3=CCC4CC(=O)CC[C@]4(C)C3CC[C@@]21C (stereo partly drawn)
    -9	-5
20. COc1cccc(C(=O)N(CC(=O)N(Cc2ccc(F)cc2)Cc2sccc2C)CC2CCCO2)c1 (stereo not drawn)
    -2	-7

2 entries from above, screen by screen.
(16) CCC(C)NS(=O)(=O)c1ccc(C(=O)N(CC)CC(C)C#N)cc1 (stereo not drawn)
(17) CN(C)CCNC(CC(=O)Nc1ccc(Cl)cc1)C(=O)O (stereo not drawn)

| screen / no. | 16 | 17 |
| --- | --- | --- |
| NPYLR7 agonist max-min | -7 | -2 |
| NPYLR7 agonist | -5 | 2 |

Remaining list, next part:
Values run as follows: NPYLR7 agonist max-min	NPYLR7 agonist
21. CC(NS(=O)(=O)N1CCOCC1)c1cccc2ccccc12 (stereo not drawn)
    -4	-4
22. O=C(Nc1ccc(-n2nc(OCc3ccc(F)cc3)nc2-c2ccccc2F)cc1)c1ccc(F)cc1
    22	16
23. COc1cccc(C(CN2CCN(C(=O)NCCc3ccc4c(c3)OCO4)CC2)OCc2ccc(C)cc2)c1 (stereo not drawn)
    -4	2
24. Cc1nc(N2CCCCCCC2)ncc1C(C)NC(C)C (stereo not drawn)
    1	6
25. CCCn1c(=S)[nH]c2cc(Cl)ccc21
    2	2
26. CCc1n[nH]c2c1CN(c1nc(-c3ccccc3)nc3c1CCNC3)CC2
    -3	-6
27. CC(=O)Nc1cccc(NC(=O)CSc2nc(=O)n(Cc3ccco3)c3c2CCC3)c1
    -2	0
28. CS(=O)(=O)c1ccc(CN2CCCC3(CCNC3)C2)cc1 (stereo not drawn)
    -5	-4
29. CSC1(CNC(=O)N(C)Cc2ccc(Cl)s2)CCOCC1
    9	-4
30. COc1cc2c(cc1OC)CN(c1cc(C(=O)NCCCN3CCCCC3C)c3ccccc3n1)CC2 (stereo not drawn)
    -1	4
31. N[C@@H](Cc1ccc(O)cc1)C(=O)N1CCc2[nH]nc(-c3ccccc3F)c2C1
    -7	2
32. Cc1ccc(F)cc1CSc1nc2cc(S(=O)(=O)N3CCOCC3)ccc2n1CC1CCCO1 (stereo not drawn)
    14	23
33. COc1ccccc1C(=O)Nc1cccc(C2SCC(=O)N2c2cc(C)ccc2F)c1 (stereo not drawn)
    14	10
34. CN1N=C(C(=O)N2CCCC(Nc3ccc4c(c3)OCCO4)C2)CCC1=O (stereo not drawn)
    -5	0
35. CCc1cccc(NC(=O)N2CCC(C(=O)N(CC)CC)CC2)c1
    -31	-34
36. CC(C)NC(=O)[C@@H]1C[C@H](N)CN1C(=O)CC1=C(c2ccccc2)CCC1=O
    -6	-3
37. Cc1ccc2nc(-c3ccccc3C)c(NC(C)(C)C)n2c1
    -3&11	-4&1
38. O=C(N=Nc1c(O)[nH]c2ccccc12)c1ccc(OCc2ccc(Cl)cc2)cc1
    2	2
39. O=C1c2c(F)ccc(F)c2C(=O)N1CCc1cn(Cc2ccc(Cl)cc2)c2ccccc12
    -5	2
40. COc1cc2sc(=NC(=O)c3ccc4ncsc4c3)n(C)c2cc1OC
    -6	-4

The list goes on:
Values run as follows: NPYLR7 agonist max-min	NPYLR7 agonist
41. COc1ccc(Cl)cc1-c1n[nH]c(=S)o1
    -6	-2
42. CCn1cc(C(CC(=O)O)c2cc(OC)cc(OC)c2)c2ccccc21 (stereo not drawn)
    -3	-3
43. COc1ccc(O)c(CN2CCC(C3(Cc4ccccc4Cl)NC(=O)N(CC4CC4)C3=O)CC2)c1 (stereo not drawn)
    9	24
44. CCOC(=O)C1=C(C)N=c2s/c(=C\c3ccc(O)cc3)c(=O)n2C1c1ccc2c(c1)OCO2 (stereo not drawn)
    2	3
45. CCN(CC)CCNC(=O)c1cc(NC(=O)Nc2cccc(C)c2)ccc1N1CCCC1
    12	8
46. O=C(c1ccccc1)c1cc(Cl)ccc1N=Nc1c(-c2ccccc2)[nH]n(-c2ccccc2)c1=O
    -13	-5
47. CCN(C)CC1CCN(C(=O)Nc2ccc(C)cc2)C1 (stereo not drawn)
    -25	-22
48. CCc1nccn1CCC(=O)N1CCNCC1C(=O)NCc1ccncc1 (stereo not drawn)
    -4	-5
49. O=C(c1cc(COc2cccc(F)c2)[nH]n1)N1CC(N2CCOCC2)C1
    0	2
50. CCOCCCn1c(SCc2ccccc2[N+](=O)[O-])nc2cc(C(=O)OCC)ccc21
    7	10
51. Cc1cccc(Nc2ccccc2C(=O)Nc2c(C)noc2C)c1C
    0	1
52. CS(=O)(=O)C(C#N)=Cc1ccc(Cl)cc1Cl
    -2	5
53. CN(C)C(CNC(=O)c1ccc(F)cc1Br)c1ccccc1Cl (stereo not drawn)
    -1	0
54. O=C(CN1C(=O)NC2(CCCC2)C1=O)N1CCN(C(=O)c2ccco2)CC1
    -1	1
55. OCC1(Cc2ccccc2)CCCN(Cc2cc3ccccc3s2)C1 (stereo not drawn)
    2	8
56. CCOc1cc(C)c(S(=O)(=O)NC2CC(C)(C)NC(C)(C)C2)cc1C
    -1&1	2&7
57. CCCCN(Cc1cccn1Cc1ccc(Br)cc1)C(=O)CN(CCCOCC)S(=O)(=O)/C=C/c1ccccc1
    48	28
58. Cc1ccn2c(NC(=O)CC(C)C)c(-c3ccc(F)cc3)nc2c1
    0	-9
59. O=S(=O)(c1ccc2c(c1)CCC2)N1CCN(c2ncnc3ccccc23)CC1
    10	9
60. O=C1OC(/C=C\c2cccc([N+](=O)[O-])c2)=NC/1=C/c1cccc([N+](=O)[O-])c1
    3	2

Remaining list, next part
Values run as follows: NPYLR7 agonist max-min	NPYLR7 agonist
61. CN(C)Cc1ccccc1OCc1cn([C@@H]2CN[C@H](C(=O)O)C2)nn1
    7	8
62. CCn1ccnc1CNC1CC(=O)N(C2Cc3ccccc3C2)C1 (stereo not drawn)
    6	12
63. COCCN(CC(=O)N(Cc1ccccc1)Cc1sccc1C)C(=O)Nc1ccc(Br)cc1
    3	-1
64. CCC(C(=O)OC)N(C(=O)C1CC1c1cccnc1)c1ccccc1 (stereo not drawn)
    2	4
65. Cc1ccc(CN(Cc2nc3cc(C)ccc3o2)C(=O)CC(C)C)cc1
    10	6
66. CCN(Cc1cccs1)C(=O)CSc1nnc(CN2CCCCC2)n1-c1ccccc1
    13	13
67. Cc1sc2nc(-c3cccs3)nc(N3CCN(c4ncccn4)CC3)c2c1C
    7	9
68. COc1ccc(-n2nnc3c(SCC(=O)N4CCC(C)CC4)ncnc32)cc1
    15	4
69. COc1cccc(OC)c1-c1ccc(-n2cncc2C(=O)NC2CCCc3ccccc32)cc1 (stereo not drawn)
    -17	-4
70. Cc1nc(-n2nc(-c3ccco3)cc2NC(=O)c2ccc(Br)o2)[nH]c(=O)c1C
    -1	2
71. O=C(Nc1ccc(O)cc1)c1cc(S(=O)(=O)N2CCOCC2)ccc1Cl
    1	1
72. CCN(CC)c1ccc(C=NNC(=O)CCC2C(=O)NN=C2C)cc1 (stereo not drawn)
    1	6
73. CCOc1cc2c(cc1OCC)C(C1CC=CCC1)NCC2 (stereo not drawn)
    -4	-1
74. CCOC(=O)c1cc(-c2ccc(N3CCN(C(=O)c4c(F)cc(OC)cc4F)CC3)cc2)n(-c2cccc(F)c2)n1
    12	22
75. O=C(NCc1ccc2c(c1)OCO2)c1csc(COc2cccc(C(F)(F)F)c2)n1
    4	-8
76. Cc1cc(C(=O)N2CCC(CN(C)C(C)C)CC2)c(C)n1C1CC1
    1	2
77. CCc1cccc2c(N3CCCC(O)C3)c(C#N)cnc12 (stereo not drawn)
    10	14
78. Fc1cnc(-c2ccc(-c3ccn[nH]3)cc2)nc1N1CCOCC1
    1	1
79. COC(=O)c1cccc(S(=O)(=O)NCc2ccc(N3CCCC3)nc2)c1
    -4	-3
80. Cc1nc(NC(=O)NC23CC4CC(C2)CC(C(C)C)(C4)C3)nn1C
    0	2

Whole records from above.
CCC(C(=O)OC)N(C(=O)C1CC1c1cccnc1)c1ccccc1 (stereo not drawn) is listed as NPYLR7 agonist max-min = 2; NPYLR7 agonist = 4
O=C(NCc1ccc2c(c1)OCO2)c1csc(COc2cccc(C(F)(F)F)c2)n1 is listed as NPYLR7 agonist max-min = 4; NPYLR7 agonist = -8
Cc1sc2nc(-c3cccs3)nc(N3CCN(c4ncccn4)CC3)c2c1C is listed as NPYLR7 agonist max-min = 7; NPYLR7 agonist = 9

Continuation:
Values run as follows: NPYLR7 agonist max-min	NPYLR7 agonist
81. c1cnc(-c2nc(CN3CCCC(c4ccncn4)C3)cs2)nc1 (stereo not drawn)
    -6	-1
82. O=c1[nH]nc(Cc2c[nH]c3ccccc23)n1C1CCCC1
    4	6
83. CS(=O)(=O)Cc1nc2ccccc2n2c(=O)c(-c3ccccc3)nnc12
    -4	-4
84. CC(C)(C)c1cc(C(=O)O)c(C(C)(C)C)s1
    -9	-7
85. CCCCCCc1cc2cc(-c3nnc(Nc4ccc(C)cc4)s3)c(=O)oc2cc1O
    30	21
86. CCOC(=O)c1nn(-c2ccccc2Cl)c(=O)cc1OCC(=O)Nc1cccc(F)c1
    8	14
87. CCOc1ncccc1CN1CCC(C(=O)Nc2ccc(C(C)C)cc2)CC1
    -2	4
88. COc1ccc(N(C)CC(=O)Nc2cc(C)no2)cc1OC
    -6	-5
89. CN1C[C@H](NC(=O)Cn2cnc3ccccc3c2=O)C[C@H]1CO
    4	7
90. CCOC(=O)c1nc2cc(Cl)c(Cl)cc2nc1N1CCCN(C(=O)c2ccccc2C)CC1
    1	4
91. CCCc1cnc2c(c1SCC(=O)NCC(=O)OCC)c(=O)n(C)c(=O)n2C
    5	5
92. CCn1nnc2c(NCc3ccccc3)ncnc21
    11	15
93. CC(C)(CNC(=O)C1CCN(c2ccc3nnc(C(F)(F)F)n3n2)CC1)N1CCCCC1
    -8	-1
94. CC(C)(C)c1ccc(Nc2ccc(S(C)(=O)=O)cc2S(C)(=O)=O)cc1
    -5	-4
95. COc1ccc(CCC2CCCN(C(=O)CN3CCCN(C)CC3)C2)cc1 (stereo not drawn)
    -4	1
96. COc1ccc(OC)c(NC(=O)CSc2ccc(-c3sc(-c4cccs4)nc3C)nn2)c1
    -5	6
97. CCN(CC)c1ccc(NC(=O)c2sc3nc(-c4ccccc4)cn3c2C)c(C)c1
    -7	-5
98. COc1ccc(S(=O)(=O)N2CCN(c3ncccc3C(=O)NCCc3ccc(OC)c(OC)c3)CC2)c(OC)c1
    3	9
99. COCc1ccccc1CNC(=O)N1CCN(c2ccccc2Cl)CC1
    -6	-4
100. COCCN1C(=O)C2(SCCN2C(=O)Nc2cccc(F)c2)c2ccccc21 (stereo not drawn)
    5	-4

The list continues.
Values run as follows: NPYLR7 agonist max-min	NPYLR7 agonist
101. Cc1cccn2c(CNC(=O)c3ccc(Cn4cccn4)o3)cnc12
    -8	-6
102. CCCC(=O)N1CCC1(C)C(=O)NS(=O)(=O)c1cc(C)ccc1F (stereo not drawn)
    -2	0
103. Cc1ccccc1-c1nn(-c2ccc(F)cc2F)cc1CN(C)Cc1nccs1
    4	16
104. O=C(NC(CO)C(O)c1ccc([N+](=O)[O-])cc1)C(Cl)Cl (stereo not drawn)
    -4	2
105. CCc1cc(C(C)NS(=O)(=O)NCc2ccccc2)on1 (stereo not drawn)
    3	4
106. CC(C)c1cc(CNC(=O)c2ccc(=O)n(-c3ccccc3)n2)on1
    2	9
107. C=CCN(CC(=O)N1CCc2sccc2C1COc1ccc(C)cc1C)C(=O)c1cccc(OC)c1 (stereo not drawn)
    3	-3

From PubChem
